Screening results deposited in PubChem by several laboratories.
RGS16-Gao – RGS16-Galphao interaction regulator (human). bead-based flow cytometry RGS16-Galphao binding, fluorescence; actives lie on both sides. binding response (% of control), % at 10 µM. O15492+P09471. 220,000 compounds, 0.38% hits;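 active = below 25% or above 175%, edge rows of some plates excepted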;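 also: Galphao activated by GDP with aluminum fluoride before binding; 100% = wells without compound and 0% = beads without RGS; some results beyond the cut were filed as inactive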
GALR2 agonist – activates the human galanin receptor 2. GALR2-expressing cells, agonist activation read-out. activation, %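 (tested at 5 µM)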. 140,000 compounds, 0.48% hits;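 active = above mean plus 3 SD of all compounds, about 5% in these data, not always enough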;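 also: 0% = vehicle buffer wells and 100% = reference agonist at full effect; tested in CHO reporter cells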
HSV replic up – increases HSV replication in cells; HSV replication augmentation in cells, fold increase; maximum fold increase; 220,000 compounds, 0.005% hits; AID 1956;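 active = peak rise of 1.5-fold or more in the series; inconclusive = self-fluorescent or not available for retest; tested in PC3 cells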;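 also: first round at 10 µM; read as green reporter fluorescence; hits show the peak of a series up to 25 µM; 1 = signal of infected wells without compound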
PKD1 kinase inh – blocks activity of human protein kinase D1. Q15139. PKD1 kinase fluorescence polarization assay. 200,000 compounds, 0.056% hits. inhibition, %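 (about 10 µM by stock and volumes)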. AID 797;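 active = inhibition of 50% or more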;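 also: controls were vehicle for no effect and a reference inhibitor for full effect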
Target sequence (Q15139 whole entry, looked up): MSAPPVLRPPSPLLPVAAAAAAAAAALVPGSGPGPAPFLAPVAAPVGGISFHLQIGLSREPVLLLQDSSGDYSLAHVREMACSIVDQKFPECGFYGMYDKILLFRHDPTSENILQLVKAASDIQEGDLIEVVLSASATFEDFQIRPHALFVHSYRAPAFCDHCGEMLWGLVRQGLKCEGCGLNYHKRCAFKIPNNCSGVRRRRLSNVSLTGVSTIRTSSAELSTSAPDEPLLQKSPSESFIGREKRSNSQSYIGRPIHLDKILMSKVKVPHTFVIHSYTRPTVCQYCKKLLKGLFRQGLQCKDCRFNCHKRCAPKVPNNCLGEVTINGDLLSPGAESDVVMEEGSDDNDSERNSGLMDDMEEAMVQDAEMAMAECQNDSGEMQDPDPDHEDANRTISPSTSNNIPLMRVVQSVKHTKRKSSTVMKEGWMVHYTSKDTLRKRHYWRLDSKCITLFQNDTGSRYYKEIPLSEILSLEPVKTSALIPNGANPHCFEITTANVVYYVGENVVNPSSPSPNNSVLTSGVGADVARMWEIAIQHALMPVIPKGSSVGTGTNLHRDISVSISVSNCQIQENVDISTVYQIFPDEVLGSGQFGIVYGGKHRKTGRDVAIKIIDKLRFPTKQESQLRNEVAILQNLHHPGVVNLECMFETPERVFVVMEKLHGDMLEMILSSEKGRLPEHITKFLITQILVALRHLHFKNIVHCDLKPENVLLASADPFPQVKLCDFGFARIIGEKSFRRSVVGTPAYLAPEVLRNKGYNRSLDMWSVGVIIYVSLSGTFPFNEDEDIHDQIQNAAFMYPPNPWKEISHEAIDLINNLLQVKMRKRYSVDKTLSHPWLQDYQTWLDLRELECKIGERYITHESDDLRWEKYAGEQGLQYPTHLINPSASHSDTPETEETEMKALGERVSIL
INS promoter inh – TRM-6 insulin promoter activity inhibition; TRM-6 cells (human fetal islet line), insulin promoter-eGFP reporter, imaging; reporter expression induced with tamoxifen; inhibition, % at 2 µM; 130,000 compounds, 0.9% hits;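 active = inhibition above the mean plus 3 SD, with well images judged a real hit on visual review, cut at about 60% in these data, passing the limit was not always enough; inconclusive = inhibition over the cutoff but images rejected on review; inactive = inhibition not above the cutoff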
INS promoter inh cell count – further read-out of INS promoter inh, marked with its call; normalized cell count, %; measured here: cell count, toxicity; reference of the scale not given here;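 cells exposed to compound for 48 h; stained nuclei by imaging scaled within each plate; lower means fewer cells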
HSV replic up primary fold – also measured in HSV replic up; calls as there; fold increase; compound at 10 µM; measured here: primary screen fold increase 10 uM; tested in PC3 cells;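 GFP signal in the first replicate; 1 = infected wells without compound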
* hit, by the source's call; i = inactive; ? = inconclusive; · = no result given.

Compound	INS promoter inh cell count	RGS16-Gao	PKD1 kinase inh	GALR2 agonist	INS promoter inh	HSV replic up primary fold	HSV replic up
COC(=O)c1sccc1N/N=C/c1ccc(OC)c(OC)c1OC	137	105	-2	-0.5	44	0.88	i
Cc1cccc(N2CCN(S(=O)(=O)c3ccc4c(c3)n(C)c(=O)c(=O)n4C)CC2C)c1 (stereo unspecified)	·	110	-14	-2.3	·	0.89	i
Cc1nn(C)c(C)c1/C=N/NC(=O)CCn1nc(C)c([N+](=O)[O-])c1C	·	106	0	-0.2	·	1.3	i
CCC(=O)Nc1ccc(C(=O)CSc2nnc(-c3ccc(O)cc3)n2CC2CCCO2)cc1 (stereo unspecified)	93	86	-10	-1.1	9	1.1	i
CCC(C)NCC(=O)Nc1ccc(S(N)(=O)=O)cc1 (stereo unspecified)	·	114	-4	·	·	1.1	i
FC(F)Oc1cccc(NC(=S)N2CCN(c3ccccn3)CC2)c1	157	101	8	·	17	1.1	i
Nc1c(C(=O)Nc2ccccc2)sc2nc3c(c(-c4ccco4)c12)CCCC3	67	104	-2	-0.2	6	0.95	i
CCc1nnc(NC(=O)CSc2nnc(CNc3ccc(C)cc3)n2C)s1	·	104	-3	·	·	0.98	i
O=C(CSc1nnc(NC(=O)c2ccccc2C(=O)O)s1)Nc1ccccc1Cl	139	103	0	·	33	0.92	i
COc1ccc2nc(NC(=O)c3ccc(Br)s3)sc2c1	132	99	-2	0.6	-7	1	i
COC(=O)c1scc(C)c1N/N=C(\C)c1ccc(F)cc1	146	106	-2	-1.7	-3	1	i
CS(=O)(=O)Nc1ccc2c3c(cccc13)CC2	·	·	-4	-1.3	·	1.1	i
Cc1cc(Cl)nc2ccc(Cc3ccc4nc(Cl)cc(C)c4c3)cc12	·	98	·	·	·	0.89	i
CS(=O)(=O)N1N=C(c2cccs2)CC1c1ccc(F)cc1 (stereo unspecified)	·	97	·	·	·	0.86	i
CCOC(=O)CN=C1CC(C)(C)CC2=C1Sc1ncnc(N(C)C)c1N2	95	98	-15	-1.6	3	·	?
Cc1cc(Nc2ccc3c(c2)OCCO3)c2ccccc2n1	111	102	-7	-0.2	0	0.65	i
O=C(Nc1cc(Cl)cc(Cl)c1)C(NCC1CCCO1)c1ccccc1 (stereo unspecified)	·	102	3	-0.9	·	1.1	i
CCC(=O)c1ccc(OC)c(OC)c1O	·	104	·	·	·	0.91	i
COc1cc(C)c(NC(=O)C(=S)N2CCCC2)cc1C	·	100	-10	·	·	0.92	i
O=C(Nc1cc(S(=O)(=O)N2CCOCC2)ccc1N1CCCC1)c1cnccn1	·	102	4	0.4	·	0.89	i
Cc1ccc(NC(=O)CN2C(=S)NC(C)(C)CC2C)cc1Cl (stereo unspecified)	67	110	-6	·	-20	0.94	i
CCCCNC(=O)CCn1c(=O)c2ccccc2n(Cc2ccc(F)cc2)c1=O	110	102	4	-1.0	45	0.94	i
CCC(C)[C@H](NC(=O)Nc1ccc(Oc2ccccc2)cc1)C(=O)O (stereo partly specified)	150	100	3	0.5	34	0.91	i
CCN(CC)CCN1C(=O)c2oc3ccc(F)cc3c(=O)c2C1c1ccncc1 (stereo unspecified)	·	115	·	·	·	1.1	i
Clc1ccc(-c2noc(COc3ccccc3)n2)cc1	101	107	-3	1.6	48	0.83	i
Cc1cc(C(=O)N/N=C/c2cc(Br)cc([N+](=O)[O-])c2O)c2ccccc2n1	53	57	-3	-2.2	-60	0.76	i
N#Cc1c(N)n(-c2ccc(N)cc2)c2nc3ccccc3nc12	·	102	·	·	·	0.95	i
O=C(Nc1ccc2oc(-c3ccccc3)nc2c1)c1ccncc1	84	112	-1	-1.2	-13	0.82	i
Cc1cc([N+](=O)[O-])nn1Cc1ccc(C(=O)N/N=C/c2ccc(N(C)C)cc2)cc1	·	97	·	·	·	0.93	i
COc1ccc(CNC(=O)c2c(C)cc(=O)oc2C)cc1	122	114	0	·	50	1	i

A second format for part of the listing above:
> CCC(C)[C@H](NC(=O)Nc1ccc(Oc2ccccc2)cc1)C(=O)O (stereo partly specified)
  INS promoter inh cell count: 150 | RGS16-Gao: 100 | PKD1 kinase inh: 3 | GALR2 agonist: 0.5 | INS promoter inh: 34 | HSV replic up primary fold: 0.91 | HSV replic up: i

> Cc1cc(C(=O)N/N=C/c2cc(Br)cc([N+](=O)[O-])c2O)c2ccccc2n1
  INS promoter inh cell count: 53 | RGS16-Gao: 57 | PKD1 kinase inh: -3 | GALR2 agonist: -2.2 | INS promoter inh: -60 | HSV replic up primary fold: 0.76 | HSV replic up: i

> O=C(Nc1cc(Cl)cc(Cl)c1)C(NCC1CCCO1)c1ccccc1 (stereo unspecified)
  INS promoter inh cell count: · | RGS16-Gao: 102 | PKD1 kinase inh: 3 | GALR2 agonist: -0.9 | INS promoter inh: · | HSV replic up primary fold: 1.1 | HSV replic up: i

> Clc1ccc(-c2noc(COc3ccccc3)n2)cc1
  INS promoter inh cell count: 101 | RGS16-Gao: 107 | PKD1 kinase inh: -3 | GALR2 agonist: 1.6 | INS promoter inh: 48 | HSV replic up primary fold: 0.83 | HSV replic up: i

The list goes on.
Compound	INS promoter inh cell count	RGS16-Gao	PKD1 kinase inh	GALR2 agonist	INS promoter inh	HSV replic up primary fold	HSV replic up
CC(C)(C)NC(=S)Nc1ccc(Nc2ccccc2)cc1	62	91	-9	-3.0	25	1	i
CNC(=O)NC(=O)C(C)OC(=O)c1c(C)noc1C (stereo unspecified)	71	108	-9	-0.6	-27	0.91	i
Cc1ccc(S(=O)(=O)NCCCNS(C)(=O)=O)cc1	133	102	-7	-2.6	-42	1.3	i
COc1ccc(-c2n[nH]c(=S)n2Cc2ccco2)cc1	123	12	5	-0.8	27	1.2	i
Cc1ccc(S(=O)(=O)N2CCC(=O)N(CCOCc3cccc(C)c3)CC2)cc1	96	98	-2	0.2	-48	1.1	i
CCOc1cc2c(cc1/C=C/C(=O)O)OC(C)C2 (stereo unspecified)	·	90	·	·	·	0.79	i
CCC(=O)Nc1cccc(NC(=S)NC(=O)Cc2ccccc2)c1	84	105	-8	-0.1	30	0.93	i
CCOC(=O)c1cnn2c(C(F)(F)F)cc(-c3cn(C)nc3C)nc12	115	98	1	-2.0	34	0.92	i
CSc1ccc(/C=C/C(=O)c2ccc(NC(=O)Cc3ccccc3)cc2)cc1	118	98	-7	-2.0	-3	0.96	i
O=C1C=C(NCCN2CCOCC2)C(=O)c2cnccc21	110	102	-4	-2.0	-18	0.58	i
CC(=O)n1cc([C@@H]2C=C(C(=O)O)O[C@H](OCc3ccc(CO)cc3)C2)c2ccccc21	·	102	3	·	·	1	i
O=C(NCc1ccc(Cl)cc1Cl)C(=O)N1CCCCC1	·	103	-4	-1.6	·	0.83	i
C=CCOC(=O)c1ccc(-n2cnc(C)n2)nc1	·	100	-3	·	·	1.1	i
Cc1ccc2[nH]c3c(=O)n(CCN4CCOCC4)cnc3c2c1	64	97	12	0.4	18	1	i
CCSc1nc2sc3c(c2c(=O)[nH]1)CCCC3	96	98	2	-1.3	0	1	i

Reformatted: results already given
C=CCOC(=O)c1ccc(-n2cnc(C)n2)nc1
- INS promoter inh cell count = ·
- RGS16-Gao = 100
- PKD1 kinase inh = -3
- GALR2 agonist = ·
- INS promoter inh = ·
- HSV replic up primary fold = 1.1
- HSV replic up = i
Cc1ccc2[nH]c3c(=O)n(CCN4CCOCC4)cnc3c2c1
- INS promoter inh cell count = 64
- RGS16-Gao = 97
- PKD1 kinase inh = 12
- GALR2 agonist = 0.4
- INS promoter inh = 18
- HSV replic up primary fold = 1
- HSV replic up = i
CCSc1nc2sc3c(c2c(=O)[nH]1)CCCC3
- INS promoter inh cell count = 96
- RGS16-Gao = 98
- PKD1 kinase inh = 2
- GALR2 agonist = -1.3
- INS promoter inh = 0
- HSV replic up primary fold = 1
- HSV replic up = i

Carrying on.
Compound	INS promoter inh cell count	RGS16-Gao	PKD1 kinase inh	GALR2 agonist	INS promoter inh	HSV replic up primary fold	HSV replic up
Cc1cc(C(=O)CSc2nc3ccccc3c(=O)n2C)c(C)n1CC1CCCO1 (stereo unspecified)	147	101	-1	·	44	0.94	i
COc1cc2c(c(OC)c1O)C(=O)CO2	·	66	·	·	·	1.1	i
COCCn1nnnc1C(c1cccc(C(F)(F)F)c1)N1CCOCC1 (stereo unspecified)	143	59	-4	-1.4	24	1.1	i
CC(=O)Nc1ccc(NC(=O)[C@@H]2CCCN2S(=O)(=O)c2ccc3c(c2)OCCO3)cc1	44	112	-4	·	10	0.93	i
O=C(CSc1nnc(CNc2ccccc2)o1)N1CCCc2ccccc21	102	109	11	-1.1	-15	·	·
CCOC(=O)c1ccccc1NC(=S)N1CCC(N2CCCCC2)CC1	180	104	8	-0.3	17	1	i
CCCCC(CC)C(=O)NCc1ccc(F)cc1 (stereo unspecified)	111	102	-3	-0.6	-56	1.1	i
CC(=O)N(/C=C1\SC(=S)N(c2ccccc2)C1=O)c1ccccc1	·	100	·	·	·	1.2	i
CCOC(=O)C1CCCN(C(=O)C2CCCN(S(=O)(=O)c3ccc4c(c3)oc(=O)n4C)C2)C1 (stereo unspecified)	·	107	-4	-1.4	·	1	i
COc1cccc(OC)c1C(=O)NCCN1CCN(C(=O)c2c(OC)cccc2OC)CC1	127	108	2	-1.4	48	0.94	i
CCn1cnc2c(oc3ccccc32)c1=O	·	89	4	·	·	1.1	i
CCOC(=O)c1ccc(N=c2ssnc2Cl)cc1	·	66	-2	·	·	1.1	i
CC(C)Nc1ccc(C(CC(N)=O)NC(=O)Cc2cccc3ccccc23)cc1[N+](=O)[O-] (stereo unspecified)	·	99	·	·	·	0.79	i
Cc1ccc(NC(=O)c2ncc(Cl)c(Cl)c2Cl)cc1C	56	112	-5	·	57	·	·
CC/C(=N/NC(=O)c1ccc(Br)o1)c1ccc(Cl)cc1	77	111	1	0.4	-17	·	·
Cc1cccnc1-n1c(CCN2C(=O)c3ccccc3C2=O)nc2ccccc2c1=O	143	109	-1	-1.2	-45	0.85	i
Cn1c(=O)c(C#N)c(-c2ccccc2)n2cnnc12	·	109	-6	0.2	·	1	i
O=C(NCCc1ccccc1)c1cccnc1	89	95	-7	-0.7	-21	0.93	i
CCOC(=O)CC(NC(=O)C(CC)c1ccccc1)c1ccccc1Cl (stereo unspecified)	67	264	-10	-0.7	-19	0.98	i
CCS(=O)(=O)N1CCC(C(=O)Nc2cc(Cl)ccc2O)CC1	72	106	-9	-2.2	3	0.91	i
COc1cc(C=C(C(C)=O)C(C)=O)ccc1O	108	98	2	-0.7	17	1	i
CCOC(=O)CNC(=O)c1cc(OC)cc(OC)c1	93	98	-5	·	44	1	i
Cc1ccc(-c2nc(CN(C)C3CCOCC3)c(C)o2)s1	·	138	4	·	·	1	i
COc1cc(N2C(=O)CSC23C(=O)Nc2ccccc23)cc(OC)c1OC (stereo unspecified)	115	99	-2	-2.5	-17	0.9	i
COc1ccc(C)cc1S(=O)(=O)N(C)CC(=O)Nc1ccc2c(c1)OCCO2	57	102	-3	0.6	-12	0.93	i
COC(=O)c1ccc(C)c(NC(=O)Cc2ccc([N+](=O)[O-])cc2)c1	·	124	0	·	·	0.99	i
O=C(c1ccc(-c2ccccc2)cc1)N1CCC(C(=O)N2CCCC2)CC1	131	97	-16	-1.2	22	0.81	i
O=C(CSc1nc(O)cc(=O)n1-c1ccccc1)c1ccc(Br)cc1	78	97	1	·	0	1.1	i
CN(C)c1ccc(/C=c2\sc3nc(-c4ccccc4)nn3c2=O)cc1	106	99	-50	-3.4	0	·	·
Cc1ccc(C(C)C)c(OCc2nc(-c3nonc3N)no2)c1	·	50	1	-1.4	·	0.86	i
CCC1CCCCN1Cc1ccc(N)cc1 (stereo unspecified)	111	109	3	·	29	0.96	i
N#Cc1c(-c2ccncc2)c2c([nH]c1=S)CCCC2	134	85	8	0.7	21	1.1	i
CC1(C)CC(=O)C=C(NCCCNC2CCCCC2)C1	103	112	-4	-0.5	-83	0.89	i
Cc1cc(C)c(S(=O)(=O)N2CCCOC2CNC(=O)C(=O)NCc2ccncc2)c(C)c1 (stereo unspecified)	·	96	5	-1.9	·	1.1	i
CN(C)c1cc(N)c2ccccc2n1 (tested in a mixture with another compound)	131	97	1	-1.0	-12	0.97	i
Cc1cccc(Nc2c(-c3ccc(N4CCOCC4)cc3)nc3ncccn23)c1	83	125	-2	-0.2	41	·	·
COc1ccccc1NC(=O)N1CCN(C(=O)Nc2ccccc2OC)CC1	·	102	·	·	·	0.98	i
O=C(COC(=O)CCCNC(=O)c1ccc(Cl)cc1)Nc1cc(Cl)c(Cl)cc1Cl	54	94	7	-0.1	-53	0.93	i
O=C(Nc1cc(N2CCCCC2)ncn1)c1ccc(F)cc1	·	100	1	·	·	0.78	i
CCOC(=O)c1c(NC(=O)Cn2nnc(-c3ccccc3Cl)n2)sc(C)c1C	194	86	1	-0.8	0	·	·
CCOc1ccc(NC(=O)CN2CCN(CC(=O)Nc3ccc(OC)cc3)CC2)cc1	90	107	-7	-2.5	28	1	i
